2A StopGo: lowers the luciferase signal of an FMDV 2A StopGo reporter; Potency, µM (doses to about 57.9 µM), for inactives: at the top dose signal change, negative = less light; human cells with a luciferase reporter of 2A StopGo recoding; control for the full effect not named in the record; 410,000 tested, 1.2% active; active = well fitted falling curve with a large enough effect; inconclusive = small, poorly fitted or top-dose-only effect; inactive = no such curve, though single readings can be large or run the other way; tested in HEK293T cells; also: % is scaled to controls: 0 for no effect and ±100 for the full control effect; nearly all actives have a fitted effect of over 45% in size; luciferase light after 4 h
SARS PLP yeast: inhibitors of SARS-CoV papain-like protease in yeast; S. cerevisiae expressing SARS-CoV PLpro, growth rescue; control for the full effect not named in the record; Potency, µM (titrated, usually from 32.9 µM), without a hit: at the top dose activity, positive = growth rescue; 330,000 tested, 0.19% active; AID 485353; active means well fitted rising curve with a large enough effect; inconclusive means small, poorly fitted or top-dose-only effect; inactive means no such curve, though single readings can be large or run the other way; also: 0% is about no effect; nearly all actives have a fitted effect of over 55% in size; growth read by luminescence after 48 h
RE007 growth inh: less growth of the S. pombe RE007 Vpr strain; S. pombe RE007 Vpr strain, BacTiter-Glo ATP luminescence, 24 h; control for the full effect not named in the record; Potency, µM (titrated, usually from 92.2 µM), for inactives: top-dose activity change, negative = less growth; 360,000 tested, 0.21% active; active = well fitted falling curve with a large enough effect; inconclusive = small, poorly fitted or top-dose-only effect; inactive = no such curve, though single readings can be large or run the other way;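 also: % is scaled to controls: 0 for no effect and ±100 for the full control effect; nearly all actives have a fitted effect of over 50% in size; the assay follows cell death caused by Vpr and the record does not say whether a fall means rescue or toxicity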
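Fission yeast strain RE007, carrying one chromosomally integrated HIV-1 vpr copy, was seeded at OD 0.01 in PMG+AL medium with 23 nL pinned compound. After 24 h at 30 °C and 99% humidity, viability was read by BacTiter-Glo luminescence.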
MARV entry inh: blocks Marburg virus binding to or entry into cells; AID 540276; 300,000 tested, 1.8% active; Marburg virus pseudotyped entry inhibition, cell reporter; control for the full effect not named in the record; about a third of the inactives were read at about 46 µM; Potency, µM (series often up to 37.8 µM), for the others: top-dose activity change, negative = inhibition, hits mostly inhibitors; active = well fitted inhibition curve with a large enough effect; inconclusive = small, poorly fitted or top-dose-only effect, or effect the other way; inactive = flat fitted curve, though single readings scatter; tested in HEK293 cells; about a fifth of its hits are not listed in these tables; also: % is scaled to controls: 0 for no effect and ±100 for the full control effect; luciferase read-out
LASV entry inh: inhibitors of Lassa virus binding or cell entry | 300,000 tested, 1.2% active | Potency, µM (doses to about 37.9 µM), inactives show at the top dose activity change, negative = inhibition, most hits filed as inhibitors | Lassa virus pseudotype entry inhibition, cell reporter; control for the full effect not named in the record | AID 540256; active means well fitted inhibition curve with a large enough effect; inconclusive means small, poorly fitted or top-dose-only effect, or effect the other way; inactive means flat fitted curve, though single readings scatter; tested in HEK293 cells; also: % is scaled to controls: 0 for no effect and ±100 for the full control effect; nearly all actives have a fitted effect of over 50% in size; luciferase read-out
NS1 inh: blocks influenza NS1 protein function; S. cerevisiae slowed by influenza A NS1, growth recovery by OD600; Potency, µM (doses to about 46.1 µM), inactives show top-dose activity, positive = more growth; 270,000 tested, 0.4% active; AID 2326; active means well fitted rising curve with a large enough effect; inconclusive means small, poorly fitted or top-dose-only effect; inactive means no such curve, though single readings can be large or run the other way; also: nearly all actives have a fitted effect of over 50% in size
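Recovery from NS1-induced slow growth read by OD600 in budding yeast switched to galactose assay medium (pH 6.0, -URA) at 1:100 dilution. Compound 23 nl per well; the matching strain lacking NS1 serves as control.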
Cruzain Triton: inhibitors of Trypanosoma cruzi cruzain with detergent; P25779; purified cruzain, Z-FR-AMC fluorescence, 0.01% Triton; Potency, µM, for the others: max response, negative = inhibition, actives largely listed as inhibitors; 200,000 tested, 0.43% active; AID 1478;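 also: plate controls were neutral wells for no effect and buffer without enzyme for full effect; nearly all actives have a fitted effect of over 40% in size; top concentration of the series not given in the record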
Target sequence (P25779 123-467 limits assumed): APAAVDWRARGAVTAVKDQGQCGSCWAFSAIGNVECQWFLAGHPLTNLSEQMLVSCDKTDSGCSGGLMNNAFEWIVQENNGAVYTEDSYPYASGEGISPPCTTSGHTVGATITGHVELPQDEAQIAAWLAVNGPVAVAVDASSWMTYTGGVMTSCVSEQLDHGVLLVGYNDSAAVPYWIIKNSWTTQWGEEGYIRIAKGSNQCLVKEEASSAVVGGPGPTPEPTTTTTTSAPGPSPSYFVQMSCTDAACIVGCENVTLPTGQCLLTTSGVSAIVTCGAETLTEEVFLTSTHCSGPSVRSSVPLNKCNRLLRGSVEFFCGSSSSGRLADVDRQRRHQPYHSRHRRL
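Detergent-containing run (0.01% Triton X-100) in acetate buffer pH 5.5 with 5 mM DTT: enzyme at 1.5 nM final, 15 min compound preincubation at room temperature, then 2 uM Z-FR-AMC substrate. Activity taken as 60 s fluorescence increase at 360/450 nm.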
Cruzain noTriton: cruzain (T. cruzi) inhibition without detergent; P25779; purified cruzain, Z-FR-AMC fluorescence, no detergent; Potency, µM, for inactives: max response, negative = inhibition, most hits filed as inhibitors; 200,000 tested, 2.3% active; AID 1476;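 also: plate controls were enzyme without inhibitor for no effect and buffer without enzyme for full effect; nearly all actives have a fitted effect of over 40% in size; top concentration of the series not given in the record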
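Detergent-free condition (0.00005% Triton X-100) in acetate buffer pH 5.5 with DTT. 1.5 nM enzyme and compound were pre-mixed 15 min, then 2 uM Z-FR-AMC substrate added; reaction progress from fluorescence change between first and third reads (60 s).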
* = called active by the depositor; u = inconclusive; x = not tested or not shown; & = joins results of further samples; [ ] = remark or other dose. Unless noted, calls follow the shape of the dose curve; as a rule, active = well fitted curve in the direction sought with a large enough effect; inconclusive = small, poorly fitted or top-dose-only effect, or another doubt; inactive = no such curve, though single readings can be large; an effect the other way counts as inactive or inconclusive. Potency is read from the fitted curve at half-maximal effect. Rows are unselected. Share with any hit: about 4.7%.

SMILES,2A StopGo,SARS PLP yeast,RE007 growth inh,MARV entry inh,LASV entry inh,NS1 inh,Cruzain Triton,Cruzain noTriton
N#CC1(C#N)COC23CCCCC2C1(C#N)C(=N)O3 (stereo unspecified),-6.0%,15.2%,-12.6%,22.1%,22.1%,5.0%,-5.0%,-1.2%
COc1ccccc1NC(=O)CSc1nc(O)c(Cc2ccccc2)c(=O)[nH]1,x,7.7%,4.4%,2.1%,u,3.6%,2.8%,-10.7%
Cc1cccc(Nc2nc3ccccc3n3nnnc23)c1,3.0%,0.5%,-19.5%,x,x,-1.5%,x,x
Cc1c(O)ccc2c(=O)c(-c3nncn3-c3ccccc3)coc12,-9.1%,-0.1%,0.9%,4.4%,7.9%,1.1%,x,x
Cc1cc(NC(=O)COC(=O)CCS(=O)(=O)c2ccc(C)c(C)c2)no1,6.3%,0.5%,0.2%,9.3%[46.1 µM],x,6.3%,x,x
Cc1ccc(C(=O)NNC(=O)c2cccc(C)c2)cc1,12.6%,-0.4%,-6.8%,u,-0.9%,1.3%,x,x
CCOC(=O)c1nc2ccccc2nc1C,-1.6%,0.0%,-14.8%,-1.6%,11.2%,3.3%,-2.4%,-1.4%
COc1ccc(-c2noc(CCC(=O)O)n2)cc1,0.0%,u,-11.0%,-8.3%,u,3.55µM*,0.4%,-13.7%
O=C(CN(C1CC1)S(=O)(=O)c1ccc(S(=O)(=O)N2CCCCCC2)cc1)Nc1ccccc1,-20.4%,5.1%,9.6%,-12.1%&-12.1%[46.1 µM],-0.7%,-0.5%,9.5%,-18.2%
Cc1ccccc1C(=O)NC(=S)Nc1ccc(N2CCN(C(=O)c3ccccc3)CC2)cc1,u,0.3%,-17.7%,u,u,15.8%,x,x
Cc1noc(C)c1COc1ccc(C(=O)OCC(N)=O)cc1,0.6%,0.5%,-16.4%,14.8%[46.1 µM],3.9%,x,x,x
O=C(C1CCN(S(=O)(=O)c2cccnc2)CC1)N1CCN(c2cccc(Cl)c2)CC1,0.0%,-4.2%,12.7%,-0.9%,x,-6.4%,-1.5%,u
CC(C)c1ccc2nc(NC(=O)C3CC3)sc2c1,70.6%[activator],-30.9%,-11.8%,x,x,-100.5%,x,x
COc1ccc(NC(=O)CC2C(=O)N(c3ccccc3)C(=O)N2Cc2ccco2)cc1 (stereo unspecified),-4.9%,-4.2%,1.6%,0.5%[46.1 µM],-18.0%,x,x,x
COc1cc2c[n+](C)c3c4ccccc4ccc3c2cc1OC,8.5%,x,u,-6.5%,26.5%,x,x,x
CCOc1ccc(C2c3c(oc4ccc(C)cc4c3=O)C(=O)N2CCCN(C)C)cc1OC (stereo unspecified),4.5%,x,x,x,u,x,-4.2%,-7.2%
CCOc1ccc2ccccc2c1/C=N/NC(=O)CC1(C)OCCCO1,-6.3%,-28.3%,-10.4%,10.8%,-1.7%,-22.8%,-6.8%,-2.7%
CC(C)=NOCC(=O)Nn1c(COc2ccccc2)nc2ccccc2c1=O,-8.0%,23.7%,2.3%,x,x,u,x,x
COc1ccc(-c2cc(-c3ccccc3)c(C#N)c(SCC(O)CS(=O)(=O)Cc3ccc(Cl)cc3)n2)cc1 (stereo unspecified),-29.3%,x,x,x,u,x,6.6%,u
COc1cc(C(=O)NCc2ccccn2)ccc1OCc1c(C)noc1C,-12.2%,-4.3%,-23.3%,15.3%,-0.3%,-6.0%,3.8%,7.6%
CCCCOCCCNC(=O)c1ccc(OCC)cc1,0.5%,-0.7%,-17.0%,u,0.1%,-15.1%,4.7%,-0.3%
CC(C)c1ccc(N(C(=O)c2csnn2)C(C(=O)NC(C)(C)C)c2ccncc2)cc1 (stereo unspecified),x,4.5%,-0.6%,3.1%,-10.0%,-0.9%,-1.3%,8.0%
CCCn1c(C)cc(/C=C(\C#N)C(=O)OCC(=O)NC(=O)NC(C)(C)C)c1C,4.7%,-3.6%,-5.0%,24.3%,1.1%,3.16µM*,-9.2%,-7.0%
COC(=O)c1c(NC(=O)COc2ccc(Cl)cc2)sc2c1CC(C)(C)NC2(C)C,18.9%,-0.6%,16.7%,u,-6.4%[46.1 µM],-8.8%,x,x
COCCN(C(=O)COC(=O)C12CC3CC(CC(Cl)(C3)C1)C2)c1c(N)n(Cc2ccccc2)c(=O)[nH]c1=O,-13.8%,-6.3%,32.6%,-13.8%,-28.8%,x,x,x
O=c1c2ccccc2nc(SCc2cn3ccsc3n2)n1-c1ccccc1F,u,5.7%,17.2%,u,u,16.0%,2.4%,-26.5%
COc1ccccc1/C=C/C(=O)NCC(=O)N/N=C/c1cc(Br)ccc1OC,-27.9%,-5.8%,-11.3%,0.5%,u,1.2%,1.8%,u
COc1ccc(C2Cc3ccccc3C(=O)O2)cc1 (stereo unspecified),19.0%,-11.9%,-4.2%,-16.8%,0.1%,u,-2.1%,-0.5%
COc1ccccc1CNC(=O)c1sc2nc3n(c(=O)c2c1C)CCC3,-0.5%,x,x,x,9.3%[46.1 µM],x,-6.3%,11.1%
O=C(NN1CCOCC1)c1ccc(Cl)c(Cl)c1,0.0%,0.9%,-0.1%,x,x,6.5%,x,x
COc1ccc(-n2cccc2/C=C2\C(=N)N3N=C(C(C)C)SC3=NC2=O)cc1,-10.2%,-10.7%,-4.7%,-8.9%[46.1 µM],u,x,x,x
COCCNC(=S)Nc1ccc(N2CCCCC2)cc1,13.3%,2.0%,-10.6%,x,x,-2.0%,x,x
CCOC(=O)c1c(NC(=O)CN(CC)CC)sc2c1CCC2,x,-10.8%,-9.5%,-27.1%,-26.8%,-19.1%,-1.6%,-1.9%
O=C(CS(=O)(=O)c1cccc2nsnc12)N1CCN(c2ccccc2)CC1,-3.5%,x,x,x,12.7%[46.1 µM],x,-1.5%,5.9%
COc1ccc(Cl)cc1Nc1cc(C)nc2nc(-c3ccccc3C)nn12,-17.1%,x,x,7.2%[46.1 µM],4.8%[46.1 µM],x,0.9%,-3.5%
O=C(CNCCc1ccccc1)N1CCc2ccccc2C1,18.3%,-6.2%,-9.5%,27.1%[46.1 µM],-5.3%,x,x,x
CSc1cccc(NC(=O)Cc2ccccc2[N+](=O)[O-])c1,18.4%,-0.7%,0.5%,u,23.6%,1.7%,x,x
Cc1ccc2nc(N(CCCN(C)C)C(=O)c3sc4ccccc4c3Cl)sc2c1,17.8µM*,-12.3%,-10.8%,-29.0%,u,-1.0%,-10.1%,-2.4%
CC(=O)c1cccc(NC(=O)CN(c2ccc(C)cc2)S(=O)(=O)c2cccc3nonc23)c1,-16.6%,-6.0%,19.4%,u,-17.2%,-32.8%,0.9%,-7.8%
CN(C(=O)C1CCC(=O)N(Cc2cccc(F)c2)C1)C1CCCCC1 (stereo unspecified),23.0%,11.9%,-2.4%,24.1%[46.1 µM],-1.1%[46.1 µM],9.7%,x,x
O=C(O)CCN(CCC(=O)O)S(=O)(=O)c1ccccc1,-17.9%,0.8%,-5.9%,-0.8%,-18.2%,-6.5%,5.3%,-1.1%
COc1ccc(CCN2CC(C(=O)NCCN3CCCC3=O)CCC2=O)cc1 (stereo unspecified),-1.0%,4.9%,4.3%,-20.7%,4.6%,u,x,x
O=C(OC(C(=O)NCC1CCCO1)c1ccccc1F)c1ccco1 (stereo unspecified),-4.1%,7.7%,7.1%,-0.5%,-3.8%,-0.5%,0.9%,-4.5%
COc1ccc(/C=N/NC(=O)C(=O)N2CCCCCC2)cc1O,23.6%,u,-14.0%,u,14.1%,-7.8%,x,x
CCOc1ccc(-n2cnc3sc(C)c(C)c3c2=O)cc1,2.9%,-7.9%,10.6%,8.8%[46.1 µM],-6.0%[46.1 µM],11.2%,x,x
Cc1ccccc1C(=O)NNC(=O)c1cccc([N+](=O)[O-])c1,0.4%,-1.8%,21.3%,3.0%[14.2 µM],21.9%,x,x,x
O=C(C1CCN(C2CCN(Cc3ccc4c(c3)CCO4)CC2)CC1)N1CCOCC1,-13.2%,0.7%,30.6%,u,-15.6%[46.1 µM],-0.2%,x,x
COC(=O)COc1nc(C)c(Br)c(OC)n1,-12.2%,-0.3%,-9.5%,-4.9%,-3.8%,4.4%,5.5%,9.2%
CCOC(=O)C1CCN(CC(C)(C)NS(=O)(=O)c2ccc(Cl)cc2)CC1,-10.3%,-0.7%,-2.2%,-17.4%[46.1 µM],u,-25.1%,x,x
O=c1c2ccccc2nc2n1CCO2,-16.4%,-1.6%,4.2%,-0.7%,0.4%,0.5%,x,x
Cc1ccc(C2c3[nH]c4ccccc4c3CCN2C(=O)c2ccccc2Br)cc1 (stereo unspecified),-16.9%,x,x,x,u,x,-1.5%,u
COc1ccc(CNC(=O)c2csc(Cc3ccccc3)n2)cc1,0.0%,u,3.8%,u,u,-11.9%,-4.5%,7.8%
CCCCN(C(=O)CSc1nn(-c2ccc(F)cc2)c(=S)s1)c1c(N)n(CCCC)c(=O)[nH]c1=O,-24.1%,4.4%,-21.2%,u,-17.7%,x,x,x
Cc1ccc(C(=O)C2CCN(S(=O)(=O)c3ccccc3C(=O)O)CC2)cc1,-1.1%,14.0%,5.0%,u,4.7%[46.1 µM],12.6%,x,x
O=C(NC1CCCCCC1)c1ccc(CS(=O)c2cccc(Cl)c2)o1 (stereo unspecified),10.4%,x,x,x,12.7%[46.1 µM],x,u,u
COc1ccccc1NCc1cccn1-c1nnc(N2CCOCC2)s1,28.1%,x,x,x,u,x,-0.9%,5.1%
CCOc1ccc(-n2nc(CO)c(C(=O)NCc3cccs3)n2)cc1,7.2%,x,x,2.6%[46.1 µM],u,x,-5.7%,-14.8%
O=C(COC(=O)[C@@H]1CC(O)CN1S(=O)(=O)c1ccc(Cl)cc1)NC(=O)NCc1ccccc1 (stereo partly specified),-25.7%,5.8%,3.0%,12.3%,8.0%,x,x,x
Cn1c(=O)[nH]c(=O)c2c1nc(OC(=O)c1ccccc1)n2CC(O)COc1ccc(F)cc1 (stereo unspecified),13.7%,0.9%,-10.8%,u,3.0%,17.1%,-4.1%,u
O=C(c1ccco1)N(CCO)Cc1cc2cc3c(cc2[nH]c1=O)OCO3,-4.1%,0.4%,-9.6%,u,-1.9%,x,x,x

Screening results: PubChem BioAssay, National Center for Advancing Translational Sciences (NCATS)
